# GLA inh pH 4.5 – qHTS Assay for Inhibitors of Human alpha-Galactosidase at pH 4.5; 230,000 tested, under 10 active; AID 1467, 2008; activity change, negative = inhibition, % at 105 µM; Alpha-galactosidase A (Homo sapiens), P06280; purified enzyme, 4-MU-alpha-Gal fluorescence, pH 4.5; inconclusive = small, poorly fitted or top-dose-only inhibition, or a rising curve; inactive = flat fitted curve, though single readings scatter; no compound was filed as active;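 note: 0% = full activity with enzyme and -100% = basal without enzyme; dose as in the result columns while the protocol names 77 µM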
# Target sequence (P06280 whole entry, looked up): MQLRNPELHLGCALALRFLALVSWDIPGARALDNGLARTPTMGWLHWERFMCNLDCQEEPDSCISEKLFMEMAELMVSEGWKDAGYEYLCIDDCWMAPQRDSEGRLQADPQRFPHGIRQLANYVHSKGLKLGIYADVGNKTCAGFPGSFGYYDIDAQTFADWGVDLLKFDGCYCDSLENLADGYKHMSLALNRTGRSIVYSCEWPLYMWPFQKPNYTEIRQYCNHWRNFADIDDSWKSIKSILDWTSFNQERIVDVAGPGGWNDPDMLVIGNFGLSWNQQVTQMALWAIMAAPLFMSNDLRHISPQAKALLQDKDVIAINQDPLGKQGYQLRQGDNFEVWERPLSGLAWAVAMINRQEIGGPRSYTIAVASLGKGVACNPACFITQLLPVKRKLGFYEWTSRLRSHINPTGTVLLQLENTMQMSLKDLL
# Rango complex inh – qHTS Assay for Inhibitors of Rango (Ran-regulated importin-beta cargo) - Importin beta complex formation. Importin subunit beta-1 (Homo sapiens), Q14974. Rango CFP/YFP FRET sensor + importin beta, 45 min. Potency, µM (doses to about 92.2 µM), inactives show top-dose inhibition of complex formation. 0.031% of 340,000 active. AID 540263, 2011; active = rising FRET ratio curve, often small or poorly fitted; inconclusive = mostly compound fluorescence or quenching in the first reads; inactive = flat curves in all reads;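 note: potency is the fitted concentration of half-maximal effect; 0% = DMSO wells and 100% = buffer wells lacking importin beta; nearly all actives have a fitted effect of over 15% in size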
#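 Inhibition scored from the CFP 486 nm/YFP 530 nm FRET ratio 45 min after adding 0.125 microM importin beta to 50 nM Rango biosensor preincubated 5 min with compound (room temperature, PBS with DTT, Tween-20, BSA). No-importin wells as positive control.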
# miR-21 FLuc – qHTS Assay for Modulators of miRNAs and/orActivators of miR-21. HeLa miR-21 FLuc reporter, luciferase, 48 h. Potency, µM (highest dose often 38.3 µM), inactives show top-dose reporter change, positive = more light. 340,000 tested, under 10 active; active = well fitted rising curve with a large enough effect; inconclusive = small, poorly fitted or top-dose-only effect; inactive = no such curve, though single readings can be large or run the other way;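 note: % of control where 0% means no effect; miR-21 action dims this reporter so a rising signal means less miR-21 action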
#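 Compounds were titrated across several concentrations (up to approximately 40 uM) and incubated 48 hours with HeLa miR-21-FLuc reporter cells (miR-21 target sequence downstream of FLuc, endogenous miR-21). Readout was firefly luciferase luminescence after lytic detection reagent.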
# Rango release inh – qHTS Assay for Inhibitors of RanGTP induced Rango (Ran-regulated importin-beta cargo) - Importin beta complex dissociation; Snurportin-1 (Homo sapiens) + GTP-binding nuclear protein Ran (Homo sapiens) + Importin …; Biochemical FRET Rango-importin beta, RanGTP-induced dissociation; Potency, µM (top dose mostly 46.1 µM), without a hit: top-dose activity change, negative = inhibition; 0.071% of 340,000 active; AID 540253, 2011; active means falling FRET ratio curve, often poorly fitted, with flat reads before Ran was added; inconclusive means other falling curves, or compound fluorescence or quenching; inactive means flat or rising ratio curve;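 note: potency is the fitted concentration of half-maximal effect; % of control where 0% means no effect; nearly all actives have a fitted effect of over 45% in size; -100% = wells without RanGTP and RCC1; the record marks most hits as doubtful in a second field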
#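 FRET read at 45 min, room temperature: inhibitors block the CFP/YFP signal rise when RanGTP (0.6 uM Ran, 2 mM GTP, 0.2 uM RCC1) frees Rango (0.1 uM) from importin beta (0.25 uM). Pre-read after 5 min compound exposure flags interference.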
# * = called active by the depositor; ? = inconclusive; . = not tested or not shown; [ ] = another dose, or the depositor's remark.
SMILES,GLA inh pH 4.5,Rango complex inh,miR-21 FLuc,Rango release inh
CCOc1ccc(/C=C\c2nc(O)c([N+](=O)[O-])c(=O)[nH]2)cc1OCC,.,-1.6%,-4%,-2%
COc1ccc(-n2nc([N+](=O)[O-])c(=NCCC3=CCCCC3)n2O)cc1,-22,0.9%,-53%,0%
Cn1c(SCC(=O)NC2CC2)nnc1-c1cccc(NC(=O)c2ccccc2F)c1,11,0.5%,-1%,-6%
O=C(CSCc1c(F)cccc1Cl)NCc1ccco1,-16,0.1%,-21%,-2%
CCc1ccccc1NC(=O)CSC1=C(C#N)C(c2ccc3c(c2)OCO3)C2=C(CCCC2=O)N1 (configuration not stated),-26,-3.2%,0%,-6%
Cc1cc(C)c2cc(C#N)c(N3CCCC3)nc2c1,-2,?,2%,?
CCNC(=O)CN1C(=O)NC(CCc2ccccc2)C1=O (configuration not stated),1,-2.0%,-1%,1%
COc1ccc(CCNC(=S)NC(=O)c2c(-c3ccccc3Cl)noc2C)cc1OC,-6,5.1%,-7%,12%
CSc1ccc(/C=N/n2c(Cc3ccc(Br)cc3)n[nH]c2=S)cc1,-3,0.3%,-3%,0%
O=C(C[n+]1ccccc1)Nc1ccccc1[N+](=O)[O-],.,1.8%,0%,-4%
Cc1ccc(NC(=O)CN2C(=O)c3ccccc3C2=O)c(C)c1,.,-2.5%,1%,10%
COCCCn1c(Cc2csc(Nc3ccc(F)cc3)n2)nnc1SCC(N)=O,5,-0.2%,4%,5%
CSc1ccccc1NC(=O)CSc1cccc[n+]1[O-],.,0.6%,.,-17%
CC(C)Cc1nnc(NC(=O)CCNC(=O)c2ccccc2Cl)s1,.,3.7%,.,14%
O=C(c1ccccc1F)N1CCN=C1c1ccccc1,10,-4.5%,-7%,-11%
CCOC(=O)c1ccc(NC(=O)c2ccc(CN3CCOCC3)cc2)cc1,-8,-1.8%,4%,-5%
CN1CCN(c2ncc3c(n2)CC(c2ccccc2F)CC3=O)CC1 (configuration not stated),-3,-1.1%,8%,0%
Cc1cccc(OP(=O)(Nc2c(C)n(C)n(-c3ccccc3)c2=O)Oc2cccc(C)c2)c1,-6,-0.1%,-1%,-2%
O=C(CCC(=O)N1CCOc2ccccc21)NCCCc1ccccc1,.,-0.2%,-1%,-17%
COc1ccccc1C(=O)N1CCN(c2ccccn2)CC1,3,-0.1%,-1%,6%
CC(=O)N1c2ccc(S(=O)(=O)NCC3CCC(C(=O)Nc4cc(C)ccn4)CC3)cc2CC1C (configuration not stated),.,-0.4%,21%,-11%
COc1cc(O)c(C(CC(=O)N2CCCC2)c2cc(OC)c(OC)c(OC)c2)c(OC)c1 (configuration not stated),-2,3.6%,1%,-18%
O=S(=O)(CCOc1ccccc1)c1nc2ccccc2[nH]1,-1,2.8%,16%,-2%
CCCCCOc1ccc(/C=c2\sc3ncnn3c2=O)cc1,4,.,4%,.

# Some of the entries so far, with each value named.
COc1ccccc1C(=O)N1CCN(c2ccccn2)CC1
  GLA inh pH 4.5: 3 | Rango complex inh: -0.1% | miR-21 FLuc: -1% | Rango release inh: 6%

CC(=O)N1c2ccc(S(=O)(=O)NCC3CCC(C(=O)Nc4cc(C)ccn4)CC3)cc2CC1C (configuration not stated)
  GLA inh pH 4.5: . | Rango complex inh: -0.4% | miR-21 FLuc: 21% | Rango release inh: -11%

COc1cc(O)c(C(CC(=O)N2CCCC2)c2cc(OC)c(OC)c(OC)c2)c(OC)c1 (configuration not stated)
  GLA inh pH 4.5: -2 | Rango complex inh: 3.6% | miR-21 FLuc: 1% | Rango release inh: -18%

O=S(=O)(CCOc1ccccc1)c1nc2ccccc2[nH]1
  GLA inh pH 4.5: -1 | Rango complex inh: 2.8% | miR-21 FLuc: 16% | Rango release inh: -2%

# (more compounds)
SMILES,GLA inh pH 4.5,Rango complex inh,miR-21 FLuc,Rango release inh
Cc1cc(=O)c2c([nH]1)c(C)cc1[nH]c(C)c(C)c12,.,?,.,?
Cn1c(=N)n(CC(O)c2ccccc2)c2ccccc21 (configuration not stated),-1,-2.1%,-34%,-3%
COc1cccc(CN(C)C(=O)c2cc(S(=O)(=O)NC3CCCCC3)ccc2C)c1,.,-1.6%,.,-9%
CCSc1nnc2n(N)c(=O)c3ccccc3n12,-14,.,-9%,.
CC1CC(C)CN(C(=O)CN2C(=O)NC(c3ccccc3)(c3ccccc3)C2=O)C1 (configuration not stated),.,-1.7%,.,1%
COc1ccc(NC(C)=O)cc1NC(C)C(=O)Nc1ccc(S(=O)(=O)N2CCCCC2)cc1 (configuration not stated),.,0.4%,.,16%
O=C(COC(=O)c1ccc2ccccc2n1)Nc1ncc(C(F)(F)F)cc1Cl,-6,-1.4%,-2%,1%
CC1CCN(C(=O)c2[nH]cnc2C(=O)N[C@@H](Cc2ccccc2)C(=O)OC(C)(C)C)CC1,.,0.7%,8%,-6%
COc1cccc(NC(=O)CSc2nc3ccccc3c(=O)n2C)c1,.,-0.4%,19%,-8%
CNc1nc(Oc2ccccc2C(=O)OC)nc(SC)n1,2,-4.6%,-2%,0%
COC(=O)CSc1nnc(-c2sc3ccccc3c2Cl)o1,-3,-4.4%,10%,1%
O=C(Nc1ccccc1C(=O)NCCN1CCOCC1)c1ccc(Cl)cc1Cl,-3,2.8%,-1%,-13%
C=CCn1c(N)c(C(=O)NCc2cccnc2)sc1=S,-7,-4.5%,-1%,-9%
Clc1ccc(C=NN2CCCCCC2)c(Cl)c1,.,-1.7%,.,9%
CC(C)c1ccc(/C=C2\SC(=O)N(CC(=O)NC3C=CS(=O)(=O)C3)C2=O)cc1 (configuration not stated),.,-0.6%,18%,-20%
CCn1cc([N+](=O)[O-])c(C(=O)NCc2ccc3c(c2)OCO3)n1,.,0.9%,0%,13%
COCCCNC(=O)c1ccc(-n2nc(C(F)(F)F)cc2-c2cccs2)cc1,4,1.9%,8%,13%
COc1ccc(CN(C(=O)/C=C/c2ccco2)C2CCS(=O)(=O)C2)cc1OC (configuration not stated),.,-0.4%,0%,2%
O=C(COC(=O)c1cccs1)Nc1cccc(S(=O)(=O)N2CCCCC2)c1,.,1.3%,.,1%
Cc1cccc(C(=O)N2CCCC(N3CCN(c4ccc(F)cc4)CC3)C2)n1 (configuration not stated),.,0.7%,-1%,-1%
COc1ccc(C(=O)NC(CC(C)C)C(=O)O)cc1OC (configuration not stated),4,-5.5%,1%,21%
Cc1ccc(C(=O)COC(=O)CCS(=O)(=O)c2ccccc2)cc1[N+](=O)[O-],.,5.4%,.,0%
Cc1ccccc1C1C(C#N)=C(N)N(N(C)C)C2=C1C(=O)CC(C)(C)C2 (configuration not stated),.,-0.5%,0%,2%
O=C(NC(=S)Nc1cccc(O)c1)C1CCCCC1,.,0.9%,.,-10%
Cc1cccc(OCC(=O)NCC(C)(C)N2CCOCC2)c1,.,-2.0%,.,-6%
Cc1ccc(C2=NOC(C)(c3nnc(-c4ccncc4)o3)C2)cc1 (configuration not stated),.,?,.,0%
c1ccc(-c2cn3nc(-c4ccccc4)cnc3n2)cc1,0,?,-21%,?
CC(C)(C)NC(=O)C(c1ccsc1)N(CCc1ccccc1)C(=O)Cn1nnc2ccccc21 (configuration not stated),10,2.5%,-5%,5%
COc1cccc(NC(=O)Cc2ccc3ccccc3c2)c1,.,-0.1%,-6%,-5%
CCOc1ccc(Cl)cc1S(=O)(=O)n1nnc2ccccc21,-6,-1.0%,-4%,27%
COC(=O)c1ccc(COc2ccccc2/C=N/NC(N)=O)o1,0,1.0%,-12%,8%
Cc1nnc(SCC(=O)Nc2ccc(N3CCOCC3)cc2)o1,-5,-0.3%,-6%,16%
O=C(c1ccccc1[N+](=O)[O-])n1cnc2ccccc21,-13,-0.2%,-2%,-5%
COCCN(Cc1nc(C2(c3ccc(C)cc3)CCCC2)no1)C(C)C,7,1.1%,1%,8%
CC1(C)CC(=O)c2cc(C(=O)NNc3ccccc3)c(=O)n(-c3ccccc3)c2C1,0,-3.2%,10%,21%
O=C(CN1CCCCC1)NCC1(c2ccccc2)CCCC1,3,-2.5%,-2%,-6%
O=C1CC(c2cccc([N+](=O)[O-])c2)c2cc3c(cc2N1)CCC3 (configuration not stated),3[21.1 µM],3.7%,26%,1%
Cc1ccc(Oc2cc(N3CCOCC3)nc(-c3ccccc3)n2)cc1,-7,-0.7%,-2%,-10%
COCC(=O)N/N=C\c1cccc(OC)c1OC/C=C/c1ccccc1,.,-0.7%,3%,2%
CCCN1Cc2cc(OC)ccc2-c2ccccc2S1(=O)=O,.,2.0%,.,5%
COc1cc(/C=C(\C#N)C(=O)Nc2ccccc2F)ccc1OCCN1CCOCC1,.,?,-33%,1%
COC(=O)CNC(=O)CN1c2cccc3cccc(c23)S1(=O)=O,7,?,-8%,-17%
O=C(C[n+]1cccc(Br)c1)c1ccccc1,.,-1.9%,-1%,6%
NC(=O)CC(NC(=O)Cc1ccc(Br)cc1)c1ccc(NCCOc2ccccc2)c([N+](=O)[O-])c1 (configuration not stated),4,2.6%,-1%,-13%
Cc1cc(SCCC(=O)O)nc2ccccc12,7,1.4%,-2%,?
COc1ccc(CNC(=O)c2cccnc2Sc2ccc(Cl)cc2)cc1,0,-1.1%,-9%,-3%
O=C(COc1ccc(Br)cc1)NNC(=O)Cc1ccc(S(=O)(=O)N2CCOCC2)s1,.,-0.7%,.,2%
O=C(Nc1ccc(CN2CCOCC2)cc1)c1cc2ccccn2n1,1,-1.2%,19%,-4%
C/C(=N\NC(=O)c1ccc(-n2cnnn2)cc1)c1ccc(C)cc1,.,-5.3%,.,1%
CC(/C=C/c1ccc2c(c1)OCO2)=N/NC(=O)C1COc2ccccc2O1 (configuration not stated),-4,.,12%,.
CN1CCCN(C(=O)CC(c2ccccc2)c2ccccc2)CC1,2,1.8%,-6%,-7%
O=C(CN1C(=O)/C(=C\c2cccs2)SC1=S)Nc1cccc(C(=O)O)c1,-2,-0.2%,-6%,-2%
Cc1ccsc1C(=O)C1CCCN(Cc2cc(F)ccc2-n2cccn2)C1 (configuration not stated),-3,-3.0%,9%,2%
CCn1ccnc1CN1CCC(n2nccc2NC(=O)c2ccccc2OC)CC1,.,5.7%,-22%,1%
N/C(=N\OC(=O)c1ccc2ccccc2c1)c1cccc([N+](=O)[O-])c1,-5,-2.5%,-32%,1%
O=C(NC1CCCCC1)c1cc(-c2ccc(Cl)cc2)on1,.,-0.2%,-2%,-1%
CC(C)[C@H](NC(=O)Nc1ccc(S(N)(=O)=O)cc1)C(=O)O,1,-0.6%,-4%,-13%
CN1C(=O)C(CC#N)(C2(CC#N)C(=O)N(C)c3ccccc32)c2ccccc21 (configuration not stated),.,-7.4%,.,-14%
O=C(Nn1c(=O)[nH]c2ccccc2c1=O)c1ccco1,-2,-4.4%,1%,18%
O=C(NC1CCCCCC1)C1c2ccccc2C(=O)N1C1CC1 (configuration not stated),4,0.0%,1%,7%

# Carrying on.
SMILES,GLA inh pH 4.5,Rango complex inh,miR-21 FLuc,Rango release inh
COc1ccc(-c2cc(C(F)(F)F)n3nc(C(=O)N(C)Cc4ccccc4)cc3n2)cc1OC,12,?,-1%,?
COc1cc(C=c2c3ccccc3n3c2cc(-c2ccccc2)[n+]3C)cc(OC)c1OC,.,?,.,?
COc1cccc(C(=O)C2CCCN(Cc3cccc(-n4nc(C)cc4C)c3)C2)c1 (configuration not stated),-22,0.0%,-6%,8%
Cc1ccc(-c2noc(CSc3nnc(CCc4ccccc4)n3-c3ccccc3)n2)cc1,-11,1.1%,5%,-8%
CCN1CCN(S(=O)(=O)c2ccc(OC)c(NC(=O)c3ccccc3)c2)CC1,.,?,2%,15%
O=C(CCNS(=O)(=O)c1ccc(Cl)cc1)N1CCN(c2ncccn2)CC1,.,-1.4%,.,6%
O=C(O)c1ccc(N2CCCCC2)cc1,-7,-2.4%,0%,-9%

# Assay outcomes: PubChem BioAssay, National Center for Advancing Translational Sciences (NCATS)

# An excerpt (hit frequency here may not be typical).
